# Source: PubChem BioAssay
# NPYLR7 ag: agonists of mosquito NPYLR7 receptor, primary screen, cell-based, Aedes aegypti, calcium fluorescence, mosquito biting behavior. Aedes aegypti neuropeptide Y-like receptor 7 (NPYLR7). HEK293T NPYLR7/Galpha15, GCaMP6s calcium fluorescence. activation, % at 10 µM. hit rate 0.15% among 270,000; in the data active means activation above about 40%;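 further: 0% = vehicle and 100% = reference agonist at the receptor; some compounds past the cut are filed as inactive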
# NPYLR7 ag max-min: recorded beside NPYLR7 ag, whose call it bears; activation, %; measured here: Max-Min RFU normalised activation; some inactives read as strong as hits;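 span of the calcium signal over five minutes; 0% = vehicle and 100% = native peptide agonist; compound fluorescence can raise it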
# Active calls of the source: *; & = joins results of further samples. A portion of the library; rates above refer to the full screens.
SMILES,NPYLR7 ag,NPYLR7 ag max-min
Cc1ccccc1-n1c(SCCCC(=O)N2CCN(C(=O)c3ccccc3Cl)C(C)C2)nnc1-c1ccccc1 (stereo not drawn),0,9
Cc1[nH]n(-c2nc(-c3ccccc3)cs2)c(=O)c1C(c1ccccc1)C(C#N)C(N)=O (stereo not drawn),-19,-25
CC1(C)C(=O)OC(C(=O)c2ccc(C(C)(C)C)cc2)C(C)(C)C1=O (stereo not drawn),-3,-5
O=C(CN1CCC2(CC1)OCCO2)N1N=C(c2ccccc2F)CC1c1ccc(Cl)cc1 (stereo not drawn),10,9
COc1ccc2c(=O)c3c(oc2c1)C(=O)N(c1nccs1)C3c1ccc(C(C)(C)C)cc1 (stereo not drawn),-1,-1
CCn1cnnc1CNc1cc(Cl)nc(N)n1,0,3
c1cc(CN2CCc3onc(-c4ccc5c(c4)OCO5)c3C2)co1,14,9
O=[N+]([O-])c1ccc(-c2cnnn2-c2ccc([N+](=O)[O-])cc2Br)cc1,7,10
COc1ccccc1NC(=O)c1cnn2c(C(F)(F)F)cc(-c3ccc(Br)cc3)nc12,-2,1
C=CCn1c(-c2ccccc2)c(C)sc1=Nc1cccc(O)c1,5,1
O=C(NCC1CCCN(Cc2sc3ccccc3c2Cl)C1)c1cccs1 (stereo not drawn),-5,-5
Cc1cc(C)n(-c2cccc(CN(C)C(=O)c3ccc(-n4cc(NC(=O)c5ccoc5)cn4)cc3)c2)n1,2,1
CC(NC(=O)C(=O)NCc1ccncc1)c1ccccc1 (stereo not drawn),24,19
CCOC(=O)C1(Cc2ccccc2F)CCCN(C(=O)Cn2nc(C)cc2C)C1 (stereo not drawn),5,2
COc1cc2nc3n(c(=O)c2cc1OC)CCCC/C3=C\c1ccc(C#N)cc1,-4,-5
Cc1cc(C)cc(C(=O)OC(C)C(=O)Nc2cc(C)on2)c1 (stereo not drawn),17,4
Cc1ncc(-c2cnc3ccccc3c2)[nH]1,15,-4
Cc1cc(-n2c(C)nc3ccccc3c2=O)ccc1NS(=O)(=O)c1ccc(F)c(C(F)(F)F)c1,14,6
CN(Cc1ccco1)C(=O)CN1CCC(Nc2ccccc2F)CC1,1,10
COc1ccc(-c2nc(Nc3ccccc3F)c3ccccc3n2)cc1,30,33
Cc1nc2c(OCc3ccc(Cl)cc3Cl)cccn2c1N(C)C(=O)CCC1CCCC1,1,-9
COc1ccc(NC(=O)NCCN2CCN(c3nc(Cc4ccc(F)cc4)ns3)CC2)c(OC)c1,22,25
O=c1ccc(-c2ccc(F)cc2)nn1CCNS(=O)(=O)c1ccccc1C(F)(F)F,-2,-3
COCCCCC(=NOCCN)c1ccc(C(F)(F)F)cc1,14&-11&-14&-3,2&5&-22&-20
CC(C)Cc1nc(N2CCN(C(=O)c3ccc(Cl)cc3Cl)CC2)c2c(-c3cccc(C(F)(F)F)c3)noc2n1,15,7
# Next section:
SMILES,NPYLR7 ag,NPYLR7 ag max-min
O=C1NC2(CCN(Cc3ccoc3)CC2)Nc2ccc(Cl)cc21,-1,7
COC(=O)C1=C(C)N=c2sc(=Cc3ccc(C)o3)c(=O)n2C1c1ccc(OC)cc1 (stereo not drawn),3,7
CCS(=O)(=O)NCc1nnnn1-c1ccc(C)cc1,1,-2
COCCn1c(C)cc(O)c(C(c2ccccc2OC)N2CCN(c3ccccc3F)CC2)c1=O (stereo not drawn),8,-2
Cc1cccc(C)c1C(O)c1ncc(-c2cccc3ccccc23)[nH]1 (stereo not drawn),0,-3
CNc1nc2cnc(Nc3ccccc3)cc2n1CCOC,9,0
COc1cc(C=NN(C)C)cc(OC)c1O,5,2
CCOC(=O)C1CCN(CC(=O)N2N=C(c3cccc(OC)c3)CC2c2ccccc2Cl)CC1 (stereo not drawn),18,14
O=C(Nc1nc(S(=O)(=O)Cc2ccccc2)ns1)c1cccnc1,10,3
CN(C)c1ccc(-c2ncc3c(n2)C[C@@H](Cc2ccccc2)NC3=O)cc1Cl,17,6
COc1ccc(NC(=O)c2ccc(CSc3nnc(C)n3-c3ccccc3C)cc2)cc1OC,-5,5
Cc1ccc(CN(CCN(C)C)C(=O)c2ccc(C)c(C)c2)s1,13,9
CN(CC1Cc2ccccc2O1)C(=O)c1cc(COc2ccc3ncccc3c2)on1 (stereo not drawn),13,4
CCc1ccc(-c2ccc(Nc3ccccc3)nn2)cc1S(N)(=O)=O,-16,-23
Cc1ccn2c(CNCC[C@@H]3C[C@@H]4C=C[C@H]3C4)c(C(=O)N3CCCCCC3)nc2c1,1,4
Cc1cc(C=Nc2ccc(Cl)cc2O)c(C)n1C,-3,5
Cc1cc(Nc2ccc(S(=O)(=O)NC(C)C)cc2)c2ccc(C(F)(F)F)cc2n1,3,1
CC(=O)Nc1ccc(S(=O)(=O)Oc2cccc(CN(Cc3ccco3)C(=O)C3CCC3)c2)cc1,4,4
COc1cc(OC)c(OC)cc1CN1CCCn2cccc2C1c1cccc([N+](=O)[O-])c1 (stereo not drawn),10,9
CC(C)c1nn(-c2ccc(Cl)c(Cl)c2)c(C(C)C)c1C(=O)N1CCOCC1,9,16
Cc1sc2ncn(CC(=O)N3CCc4ccccc4C3)c(=O)c2c1C,1,-5
CS(=O)(=O)N(CC(=O)NC1CC1)c1ccc(Cl)cc1F,2,2
Cc1ccc2oc3c(c(=O)c2c1)C(c1ccccn1)N(c1ccccn1)C3=O (stereo not drawn),6,2
Cn1cc(C(=O)NCCc2ccccc2)c2n[nH]c(=O)c-2c1,0,-2
CC1CCCCN1c1nc2c(c(=O)[nH]c(=O)n2C)n1CCCc1ccccc1 (stereo not drawn),4,-2

# At a glance, 20 of the compounds above.
SMILES,NPYLR7 ag,NPYLR7 ag max-min
O=C1NC2(CCN(Cc3ccoc3)CC2)Nc2ccc(Cl)cc21,-1,7
COC(=O)C1=C(C)N=c2sc(=Cc3ccc(C)o3)c(=O)n2C1c1ccc(OC)cc1 (stereo not drawn),3,7
CCS(=O)(=O)NCc1nnnn1-c1ccc(C)cc1,1,-2
COCCn1c(C)cc(O)c(C(c2ccccc2OC)N2CCN(c3ccccc3F)CC2)c1=O (stereo not drawn),8,-2
Cc1cccc(C)c1C(O)c1ncc(-c2cccc3ccccc23)[nH]1 (stereo not drawn),0,-3
CNc1nc2cnc(Nc3ccccc3)cc2n1CCOC,9,0
COc1cc(C=NN(C)C)cc(OC)c1O,5,2
CCOC(=O)C1CCN(CC(=O)N2N=C(c3cccc(OC)c3)CC2c2ccccc2Cl)CC1 (stereo not drawn),18,14
O=C(Nc1nc(S(=O)(=O)Cc2ccccc2)ns1)c1cccnc1,10,3
CN(C)c1ccc(-c2ncc3c(n2)C[C@@H](Cc2ccccc2)NC3=O)cc1Cl,17,6
COc1ccc(NC(=O)c2ccc(CSc3nnc(C)n3-c3ccccc3C)cc2)cc1OC,-5,5
Cc1ccc(CN(CCN(C)C)C(=O)c2ccc(C)c(C)c2)s1,13,9
CN(CC1Cc2ccccc2O1)C(=O)c1cc(COc2ccc3ncccc3c2)on1 (stereo not drawn),13,4
CCc1ccc(-c2ccc(Nc3ccccc3)nn2)cc1S(N)(=O)=O,-16,-23
Cc1ccn2c(CNCC[C@@H]3C[C@@H]4C=C[C@H]3C4)c(C(=O)N3CCCCCC3)nc2c1,1,4
Cc1cc(C=Nc2ccc(Cl)cc2O)c(C)n1C,-3,5
Cc1cc(Nc2ccc(S(=O)(=O)NC(C)C)cc2)c2ccc(C(F)(F)F)cc2n1,3,1
CC(=O)Nc1ccc(S(=O)(=O)Oc2cccc(CN(Cc3ccco3)C(=O)C3CCC3)c2)cc1,4,4
COc1cc(OC)c(OC)cc1CN1CCCn2cccc2C1c1cccc([N+](=O)[O-])c1 (stereo not drawn),10,9
CC(C)c1nn(-c2ccc(Cl)c(Cl)c2)c(C(C)C)c1C(=O)N1CCOCC1,9,16

# (more compounds)
SMILES,NPYLR7 ag,NPYLR7 ag max-min
Cc1nn(-c2nc(C)c(C)c(=O)[nH]2)c(C)c1CCC(=O)N1CCCC1,-3,-4
CC[C@H](C)C(=O)O[C@H]1C[C@@H](C)C=C2C=C[C@H](C)[C@H](CC[C@@H]3C[C@@H](O)CC(=O)O3)[C@H]21,-2&-3&-5,-7&-19&-9
COc1ccc(-c2nnc(SCC(=O)N/N=C\c3cccs3)n2-c2ccccc2)cc1OC,-10,-12
COc1ccc(C)cc1-n1cnnc1Cn1nc(C)c(C)c1C,6,-4
Cc1nn(C(C)C(=O)NCC2CCCO2)c(=O)c2cc3occc3n12 (stereo not drawn),1,-2
CCCN1CC(NC(=O)c2ccc(-n3cnnc3)cc2)CC1=O (stereo not drawn),2,-1
CC(C)c1ccc(NC(=O)c2cn(CC3CCCO3)cc3c(=O)n(-c4ccccc4)nc2-3)cc1 (stereo not drawn),8,6
Cc1ccccc1OCC(=O)NC(C)C(=O)N/N=C/c1ccc2c(c1)n(C)c(=O)n2C (stereo not drawn),8,5
N#CCOc1ccc(CC(=O)NC2CCCOc3ccccc32)cc1 (stereo not drawn),11&2,9&-3
COc1ccc([N+](=O)[O-])c2c1NC(c1cc(Br)c(OC)c(OC)c1)C1CC=CC21 (stereo not drawn),-17,-19
CC(=O)N=c1c(C#N)cc2c(=O)n3cccc(C)c3nc2n1CC(C)C,3,10
FC(F)Oc1ccc(NC(=S)Nc2ccc3c(c2)OCCO3)cc1,0,0
COc1cc(OC)c(OC)cc1C=CC(=O)c1ccc2c(c1)CCO2,18,26
COC(=O)c1cc2n(n1)CCCN(C(=O)c1ccccc1-n1cncn1)C2,-7,-12
COc1ccc(-c2nc3scc(CCNC(=O)/C=C/c4ccco4)n3n2)cc1,3,2
COc1ccccc1-n1c(SCc2ccc(C(=O)Nc3ccc(C(C)C)cc3)cc2)nnc1-c1ccco1,3,21
COCCN(Cc1cc(NC(=O)C2CCCC2)ccc1N(C)C)C(=O)Nc1cccc(F)c1,-11,-7
CCC(O)C1CCCCN1Cc1ncc(Cl)n1C (stereo not drawn),13&18,6&8
CCOc1ccc(NC(=O)Nc2ccc(N3CCN(c4ccccc4OC)CC3)c(C(=O)N3CCCC3)c2)cc1,-2,1
Cc1ccc(C(C)C)cc1S(=O)(=O)NCCNc1ccc(Nc2cccnc2)nn1,0,-1
Cc1ccc(F)c(-n2nnnc2CSC2CCCCNC2=O)c1 (stereo not drawn),4,7
CCS(=O)(=O)c1ccccc1C(=O)NC1CCSc2ccccc21 (stereo not drawn),3,0
CC1CC(C)CN(Cc2csc(NC(=O)C(C)Oc3ccc(C#N)cc3)n2)C1 (stereo not drawn),-4,-7
Cc1ccc(S(=O)(=O)N2CCN(Cc3nc4scc(-c5cccs5)c4c(=O)[nH]3)CC2)cc1,6,7
O=C(Nc1nc(-c2ccccc2Cl)cs1)c1cccs1,1,11
# The list goes on:
SMILES,NPYLR7 ag,NPYLR7 ag max-min
O=C(c1cnn2c(-c3ccccc3)cc(-c3ccccc3)nc12)N1CCN(Cc2ccccc2)CC1,-5,-10
Cc1c(-c2ccc(Cl)cc2)n[nH]c1C(=O)N1CCOC(C(F)(F)F)C1 (stereo not drawn),3,0
CC1(C)C2CCC1(C)C(NC(=O)c1ccn(-c3ccccc3)n1)C2 (stereo not drawn),9,8
O=c1cc(CN2CCOC(CCCc3ccccc3)C2)[nH]c(=O)[nH]1 (stereo not drawn),-1,-2
O=C(NC1CC2CCC(C1)N2Cc1ccc2c(c1)OCO2)c1ccc(Cl)cc1 (stereo not drawn),5,5
CCCc1n[nH]c(=O)n1-c1ccc(OC)cc1C,-3,-9
CCSc1nnc(C)c2cnn(-c3ccc(C)c(C)c3)c12,-11,-16
CCOCCC1(CNC(=O)Nc2cc(CC)nn2C)CCCC1,0,3
O=C(Cn1cccc(C(F)(F)F)c1=O)Nc1cccc2c1CCCC2,-1,-2
